Screening data as filed in PubChem.
HPGD inh: qHTS Assay for Inhibitors of HPGD (15-Hydroxyprostaglandin Dehydrogenase); 15-hydroxyprostaglandin dehydrogenase [NAD(+)] (Homo sapiens), P15428; purified HPGD, NADH fluorescence kinetic, PGE2 substrate; Potency, µM, without a hit: at the top dose activity change, negative = inhibition, most hits filed as inhibitors; 150,000 tested, 4.3% active; AID 894, 2007; active = well fitted inhibition curve with a large enough effect (not every such curve was filed as active); inconclusive = small, poorly fitted or top-dose-only effect, or another doubt; inactive = no such curve, though single readings can be large or run the other way;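 further: top concentration of the series not given in the record; plate controls included wells without enzyme; inactives centre near -10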
Target sequence (P15428 whole entry, looked up): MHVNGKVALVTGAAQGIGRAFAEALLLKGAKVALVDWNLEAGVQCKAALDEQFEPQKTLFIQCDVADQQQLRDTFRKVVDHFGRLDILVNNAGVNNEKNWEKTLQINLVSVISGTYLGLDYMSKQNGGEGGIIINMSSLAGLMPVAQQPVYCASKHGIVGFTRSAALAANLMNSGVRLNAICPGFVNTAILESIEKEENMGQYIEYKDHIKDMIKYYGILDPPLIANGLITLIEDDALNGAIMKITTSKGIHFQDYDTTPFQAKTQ
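20 nM HPGD preincubated 15 min at room temperature with compound in 50 mM Tris-HCl pH 8, 0.01% Tween 20. Started with 1 mM NAD+ and 30 uM prostaglandin E2; NADH fluorescence (360/450 nm) read 5 times over 30-s intervals, last minus first.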
Active calls of the source: *; ? = inconclusive; & = joins results of further samples. On the % scale 0 is the no-effect control and ±100 the full control effect; potency means the concentration at half of the fitted maximal effect.

HPGD inh	smiles
-2.8%	COc1cc(-c2nnc(SC/C=C/c3ccccc3)n2N)cc(OC)c1OC
-18.2%	Nc1nnc(-c2ccco2)s1
-10.7%	COc1ccc2nc(NC(=O)Cn3cnc4c(=O)n(C)c(=O)n(C)c43)sc2c1
-3.1%	COC(=O)[C@@H]1O[C@@H](SCCN)[C@@H](O)[C@H](O)[C@H]1O
-5.6%	COc1ccc(CCn2c(-c3ccccc3)nc3c(c(=O)c4ccccc4n3C)c2=O)cc1
-3.4%	CN1CC[C@@]2(CCCN(C(=O)c3cc(C(F)(F)F)cc(C(F)(F)F)c3)C2)C1
12.6µM*	c1ccc(CSc2n[nH]c(-c3ccco3)n2)cc1
-3.1%	C[N+](C)(C)CCCCCCC(=O)/C=N/O
-19.1%	C=CCn1c(SCC(=O)N2CCc3ccccc3C2)nnc1-c1ccncc1
3.3%	C=CCN1C(=CCO)[C@H]2C[C@H]3[C@@H]1CC[C@@]31c3ccccc3N3C=C4[C@@H]5N(/C=C/2[C@H]31)c1ccccc1[C@]51CC[C@H]2[C@H]1C[C@@H]4/C(=C/CO)N2CC=C
-4.6%	O=C(Cn1cnc2ccccc2c1=O)NCCC(=O)N1CCN(c2ccccc2)CC1
-6.4%	CC(C)(C)NC(=O)C(c1cccs1)N(CC1CCCO1)C(=O)Cn1nnc(-c2cccs2)n1 (stereo not given)
-4.4%	Fc1ccccc1/C=N/Nc1nn[nH]n1
-15.0%	CCCCc1nc2sc3c(=O)n(N)cnc3c2c2c1CCCC2
?	COC(=O)c1sccc1NC(=S)N1CCCCC1
-17.7%	CCc1ccc(OCC(=O)N2CCN=C2c2ccccc2)cc1
?	O=C(Cn1c2ccccc2c(=O)c2ccccc21)Nc1ccccc1F
?	O=C1c2ccccc2NC2(CCCCC2)N1c1ccc(O)cc1
-24.0%	Cc1ccc(-n2c(C)cc(/C=C3/C(=N)N4C(c5ccccc5)=CSC4=NC3=O)c2C)cc1
0.5%	CN1CCN(C(=O)c2ccccc2NC(=O)CCN2C(=O)c3ccccc3C2=O)CC1
-20.0%	O=C(c1ccccc1)c1ccc(OC(=O)N2CCCC2)cc1
-8.4%	COc1ccc(OC)c(CNC(=O)CCN2C(=O)COc3ccccc32)c1
-13.5%	COc1cc(NC(=O)CCCc2c[nH]c3ccccc23)cc(OC)c1
-5.0%	CCOc1ccc(C(=O)NC(=S)Nc2ncccc2C)cc1[N+](=O)[O-]
-15.2%	N#CC(C#N)=CC1=C2OC(c3ccccc3)=CC(c3ccccc3)=C2CCC1
-4.8%	Cc1onc(-c2ccccc2)c1C(=O)NCCc1c[nH]c2ccccc12
17.8µM*	COC(=O)c1c(NC(=O)c2ccco2)sc(C(=O)N2CCCC2)c1C
-12.4%	CC(C)CC(=O)Nc1ccc(F)c(Cl)c1
-11.4%	CC1(C)OC(=O)CC1C(=O)NCc1ccccc1 (stereo not given)
-8.8%	CC(C)C(OC(=O)c1cc2sccc2n1C)C(=O)NCC1CCCO1 (stereo not given)
-15.1%&-17.9%&-7.3%	Cc1cnc(NC(=O)C2=C(O)c3ccccc3S(=O)(=O)N2C)s1
-15.5%	O=C(O)CCS(=O)(=O)c1cccc2cccnc12
?	Cc1cc2ccccc2nc1SCC(=O)N1CCCC1
-9.0%	CCCCNC(=S)NC1CCCC1
-17.9%	Cc1ccc(OC(=O)C23CC4CC(CC(C4)C2)C3)c(C)n1
-10.6%	COc1ccc(CN=CC2=C(O)CC(C)(C)CC2=O)cc1
1.3%	COc1cc(OC)cc(C(=O)n2cnnc2N)c1
-4.9%	COc1ccc(NC(=O)CSc2nnc(Cn3c(=O)sc4ccccc43)n2C)cc1OC
-3.8%	O=C(Nc1ccccc1)c1sc(Cl)nc1-c1ccccc1
-6.0%	Cc1cc(C)nc(NC2=NCCN2C(=O)NC2CCCCC2)n1
-12.7%	CC(NC(=O)CCSCCC(=O)NC(C)c1ccccc1)c1ccccc1 (stereo not given)
-18.3%	COC(=O)CCc1c(C)nn(-c2ccccc2)c1C
-10.5%	c1cc2c3c(cccc3c1)NC1(CCCCC1)N2
-18.4%	O=C(Nc1ccc(Cl)cc1)NC1CCCC1Cc1ccco1 (stereo not given)
-19.5%	CN(C(=O)C1CCCO1)c1nnc(-c2cnccn2)s1 (stereo not given)
-13.4%	O=C(Cn1c(=O)oc2ccccc21)Nc1nnc(N2CCCCCC2)s1
-13.7%	COc1ccccc1-n1c(COc2ccccc2-c2ccccc2)nnc1SCC(=O)c1c(N)n(C)c(=O)n(C)c1=O
-15.0%	CCc1[nH]nc2c1C(C(C)C)C(C#N)=C(N)O2 (stereo not given)
?	Cc1ccccc1CN(c1ccc(C(=O)N2CCc3ccccc3C2)cc1)S(C)(=O)=O
-11.1%&0.1%	Cc1cc(CNC(=O)[C@H]2C[C@@H]2[C@H](NP(=O)(c2ccccc2)c2ccccc2)c2ccccc2)nn1C

Further results.
HPGD inh	smiles
-13.4%	CCOC(=O)Nc1ccc(S(=O)(=O)Nc2nc(C)cc(C)n2)cc1
-17.3%	CC(Sc1ccc(S(=O)(=O)N2CCOCC2)cc1[N+](=O)[O-])C(=O)O (stereo not given)
-10.0%	CCOc1ccc(C2/C(=C(/O)c3ccc(F)cc3)C(=O)C(=O)N2CCCN(C)C)cc1 (stereo not given)
-10.2%	COCCn1c(SCC(=O)Nc2ncc(C)s2)nc2sc3c(c2c1=O)CCC3
-3.5%	CC(c1ccc(C(C)(C)C)cc1)S(=O)CC(O)CO (stereo not given)
-12.6%	CCn1c(NC(=S)Nc2ccccc2)nc2ccccc21
?	CCOC(=O)c1c2ccc(OCC(=O)N/N=C/c3ccc(C)cc3)cc2n2ccccc12
-18.8%	CCOC(=O)c1csc(NC(=O)c2ccc(S(=O)(=O)N(CC)CC)cc2)n1
-12.1%	Cc1cc(NC(=O)CSc2nnc(COc3cccc(C)c3C)n2C)no1
-10.6%	COc1ccc(NC(=O)Cc2nnc(SCC(=O)Nc3cc(C)ccc3OC)n2C)cc1
-25.7%	COc1cccc(/C=N/n2c(SC)nnc2-c2ccccc2)c1OC
-8.9%	O=C(Nc1ccc(Cl)c(S(=O)(=O)Nc2ccccc2Cl)c1)c1cccs1
-16.5%	CCN1CCN(c2c(Cl)cccc2NC(=O)c2ccco2)CC1
-18.3%	NC(=O)c1ccc(C(F)(F)F)n(Cc2cccc(Cl)c2)c1=O
-25.2%	Cc1ccc(NC(=O)Cn2nc(C)c3ccccc3c2=O)c(C)c1
-26.9%	O=c1c2[nH]c3ccc(F)cc3c2ncn1C1CCCCC1
-2.5%	CC1(C)C/C(=C(/C#N)C(N)=O)CCO1
-13.3%	Cc1ccccc1C(=O)NC1CCS(=O)(=O)C1 (stereo not given)
-18.1%	N#Cc1c(NC(=O)CSc2nc3ccccc3s2)sc2c1CCCC2
-15.3%	Oc1ccccc1C1N=C(c2ccccc2)NC(c2ccccc2)=N1
-24.7%	O=C(Nc1ccccc1C(=O)O)c1cccc(NC(=O)c2ccc(Br)o2)c1
-10.9%	Nc1nn(-c2ccccc2)c(N)c1N=Nc1ccc2c(c1)OCO2
-20.5%	Nc1nnc(CCCCc2cccs2)o1
-28.6%	COc1ccc(C2=NC(C(F)(F)F)(C(F)(F)F)c3c(n(C)c(=O)n(C)c3=O)N2)cc1
-5.6%	CC(=O)c1ccc(NC(=O)c2ccn[nH]2)cc1
-11.2%	C=CCn1cc(C(=O)NCC2CCCO2)c(=O)c2cc(S(=O)(=O)N3CCCCCC3)ccc21 (stereo not given)
-9.4%	COc1ccc2c(c1)C(=O)[C@H](OC(=O)NS(=O)(=O)c1ccc(C)cc1)[C@@H](c1ccc(OC)c(Br)c1)O2
-3.5%	O=C1C2C3CCC(C3)C2C(=O)N1CNc1ccc(F)cc1 (stereo not given)
2.1%	O=[n+]1cc(-c2ccc(F)cc2)n([O-])c2c1CCC2
-13.9%	O=C(O)C1CCCCC1C(=O)Nc1ccccc1Cl (stereo not given)
-3.4%	CCOc1ccc(CONS(=O)(=O)c2ccc(NC(C)=O)cc2)cc1Cl
?	Cc1c(C#N)c(N)nc2c3c(sc12)NC(=O)CC3c1ccccc1 (stereo not given)
-3.2%	CN(C)Cc1ccccc1-c1nc(NCc2ccccc2)c2ccccc2n1
-0.7%	C=CC(=O)NCCCc1cc(C(C)(C)C)c(O)c(C(C)(C)C)c1
-11.1%	Cc1noc(C)c1C(=O)OCC(=O)c1cc(C)n(Cc2ccccc2Cl)c1C
-8.6%	Cc1[nH]c2ccc(OCc3ccccc3)cc2c1CCN1C(=O)OC(C)(C)C1(C)O (stereo not given)
-6.6%	Cc1ccc(S(=O)(=O)Nc2ccc3ncccc3c2)cc1
-0.7%	CNC(=O)NC(=O)CSc1nnc(C(F)(F)F)n1C
-8.6%	COc1ccc2nc(NC(=O)CSc3nnc(-c4ccoc4C)n3C)sc2c1
-4.3%	COc1ccc(NC(=O)CSc2nc(C)c3c(c2C#N)CCCC3)cc1
10µM*	CCCOc1ccc(-c2nn(-c3ccccc3)cc2/C=C2\SC(N)=NC2=O)cc1C
-20.2%	Cc1cccc(N2CCN(C(=S)NCc3ccco3)CC2)c1C
0.891µM*	Cc1c(O)c(Br)c(C)c(O)c1Br (tested in a mixture with another compound)
1.3%	COc1ccc(CCNC(=O)NC23CC4CC(CC(C4)C2)C3)cc1
14.1µM*	COC(=O)c1cc(NC(=O)CSc2nc(C)cc(=O)[nH]2)cc(C(=O)OC)c1
-4.2%	CCOC(=O)C1CCN(C(=O)C(=O)N2CCC(C(=O)OCC)CC2)CC1
-27.8%	CCCC1Cc2c(sc(NC(=S)NC(=O)c3ccccc3)c2C#N)CO1 (stereo not given)
5.2%	COc1ccc(C(=O)NCC(=O)OCC(=O)Nc2c(C)n(C)n(-c3ccccc3)c2=O)cc1
-21.8%	O=C(c1cn(-c2ccccc2)nc1-c1ccccc1)n1nnc2ccccc21
-10.0%	COc1ccc2c(c1)N(S(=O)(=O)c1ccccc1)CCC2=O

Carrying on:
HPGD inh	smiles
-4.0%	CCNC(=O)NC(=O)COc1ccccc1C#N
-1.7%	CCc1ccccc1NC(=O)CSc1nnc([C@@H]2CCCN2C(=O)OC(C)(C)C)o1
?	CCC(C)n1cnc2c(c1=O)c1nc3ccccc3nc1n2Cc1ccc2c(c1)OCO2 (stereo not given)
?	O=C(CSc1nc2ccccc2c(=O)[nH]1)N1CCCCCC1
-3.4%	Cc1ccc(S(=O)(=O)NCCc2nnc3ccc(SCC(=O)Nc4nc5ccccc5s4)nn23)cc1
-10.1%	CN(C)CCCNC(=O)c1cc(Br)ccc1Cl
-17.9%	COc1ccc(CNC(=O)COC(=O)Cc2ccc(Cl)cc2Cl)cc1
-21.8%	Cc1csc(=N)n1-c1ccc(Cl)cc1
-1.7%	Cc1ccc(N2C(=O)CC(Cn3nc(C)cc3C)C2=O)cc1 (stereo not given)
-5.5%	Cc1nc2ccccc2c(=O)n1NC(=O)c1c(O)c2ccccc2n(C)c1=O
?	CSc1ccccc1NC(=O)c1noc2c1CCC2
?	c1ccc(-c2[nH]ncc2-c2nc3ccccc3[nH]2)cc1
-11.4%	NC(=O)CSc1nc(-c2ccccc2Cl)ns1
-7.4%	O=C(O)c1ccc(-c2ccccc2C(F)(F)F)o1
-1.5%	NC(=O)CCS(=O)(=O)c1ccccc1
?	CCOC(=O)C1CCN(Cc2cnc(Oc3ccc(C(C)(C)C)cc3)s2)CC1
-1.5%	Cn1cccc1C(=O)N1CCC2(CC1)CCN(C(c1ccccc1)c1ccccc1)CC2
-12.9%	CC(=O)C1=C(O)C(=O)N(Cc2ccco2)C1c1ccc2c(c1)OCO2 (stereo not given)
-9.7%	CCOC(=O)Cn1c(=N)n(Cc2ccccc2F)c2ccccc21
-21.5%	O=C(Cn1cnc2ccccc21)N/N=C/C(Br)=C/c1ccccc1
-3.8%&-17.6%	C[N+]1(C)CCc2cc3c(cc2[C@@H]1[C@@H]1C(=O)Oc2c1ccc1c2OCO1)OCO3
-12.8%	CC1=CC(C)(C)Nc2ccc(OC(=O)c3cccnc3)cc21
?	O=C(c1ccc2c(c1)N(Cc1ccccc1)C(=O)c1ccccc1S2)N1CCCC1
?	CCc1ccc2c(c1)C1(NN=C(c3ccc(C)cc3)S1)C(=O)N2 (stereo not given)
-1.8%	O=C1CC(N2CCN(c3nc4ccccc4s3)CC2)C(=O)N1Cc1cccs1 (stereo not given)
?	Cc1nc(-c2cccc3ccccc23)ccc1C(=O)O
-28.7%	CCN(CC)S(=O)(=O)c1ccc(N2CCCCC2)c(NC(=O)/C=C/c2cc(OC)c(OC)c(OC)c2)c1
-7.7%	CCCc1ccc(C2C3=C(CC(C)(C)CC3=O)NC3=C2C(=O)c2ccccc23)cc1 (stereo not given)

Given as tab-separated lines: 5 of the compounds above.
smiles	HPGD inh
CC(=O)C1=C(O)C(=O)N(Cc2ccco2)C1c1ccc2c(c1)OCO2 (stereo not given)	-12.9%
CCOC(=O)Cn1c(=N)n(Cc2ccccc2F)c2ccccc21	-9.7%
O=C(Cn1cnc2ccccc21)N/N=C/C(Br)=C/c1ccccc1	-21.5%
C[N+]1(C)CCc2cc3c(cc2[C@@H]1[C@@H]1C(=O)Oc2c1ccc1c2OCO1)OCO3	-3.8%&-17.6%
CC1=CC(C)(C)Nc2ccc(OC(=O)c3cccnc3)cc21	-12.8%

Three compounds already listed, arranged by molar mass, smallest number first.
HPGD inh	smiles
?	COC(=O)c1sccc1NC(=S)N1CCCCC1
-3.2%	CN(C)Cc1ccccc1-c1nc(NCc2ccccc2)c2ccccc2n1
?	CCOC(=O)c1c2ccc(OCC(=O)N/N=C/c3ccc(C)cc3)cc2n2ccccc12

Some of the compounds tested; rates above refer to the full screens.
